Screening results (PubChem BioAssay)
TRPV1 potentiator – HTS Assay for Compounds that Act as Potentiators of the Vanilloid Receptor 1 | Transient receptor potential cation channel subfamily V member 1 (Homo sapiens), Q8NER1 | TRPV1-expressing cells, Fluo-8 calcium influx, capsaicin EC20 potentiation; host cell line not named in the record; control for the full effect not named in the record | potentiation, % at 8.33 µM | 320,000 tested, 0.02% active | AID 540277, 2011; active means potentiation above 80%; inconclusive means 30% to 80%; inactive means below 30%; further: 0% is about no effect
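TRPV1-expressing cells were cultured overnight at 35.5C and loaded with Fluo-8 calcium dye for 40 to 90 min at room temperature. After a 10 s baseline, compound was added and calcium influx was read kinetically for 3 min (ex 480/em 520 nm).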
gsp agonist – qHTS for Agonist of gsp, the Etiologic Mutation Responsible for Fibrous Dysplasia/McCune-Albright Syndrome: qHTS; gsp mutant cells, cAMP HTRF, 30 min; control for the full effect not named in the record; Potency, µM (top dose mostly 76.9 µM), inactives show at the highest dose activation (cAMP increase), most hits filed as activators; 340,000 tested, 0.13% active; active = well fitted activation curve with a large enough effect; inconclusive = small, poorly fitted or top-dose-only effect, or another doubt; inactive = no such curve, though single readings can be large or run the other way; cell line not stated here;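 further: phosphodiesterase inhibitor Ro 20-1724 added with compounds to block cAMP breakdown; potency means the concentration at half of the fitted maximal effect; nearly all actives have a fitted effect of over 60% in size; about a fifth of the inactives were tested at one dose only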
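Cells in DMEM/10% FBS with G418 were pretreated with compounds in DMSO plus […] (300 uM stock) for 30 min at 37C. cAMP was measured by HTRF (cAMP-d2 plus anti-cAMP antibody-K) after 30 min at room temperature.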
gsp antagonist – qHTS for Antagonists of gsp, the Etiologic Mutation Responsible for Fibrous Dysplasia/McCune-Albright Syndrome: qHTS. AID 624288, 2012. Potency, µM (top dose mostly 76.9 µM), for inactives: at the highest dose activity change, negative = inhibition, most hits filed as inhibitors. 340,000 tested, 0.4% active. gsp-mutant cells, cAMP HTRF, 30 min; control for the full effect not named in the record; active = falling curve of any shape with a large fitted effect; inconclusive = falling curve, mostly with a smaller effect; inactive = flat or rising curve; cell line not stated here;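 further: intracellular cAMP measured with PDE inhibitor Ro 20-1724 present during compound exposure; potency means the concentration at half of the fitted maximal effect; on the % scale 0 is the no-effect control and ±100 the full control effect; nearly all actives have a fitted effect of over 65% in size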
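Cells in G418 medium, seeded 16-24 h, 37C; buffer exchange to DPBS + 1 mM CaCl2, 0.5 mM MgCl2, 0.05% BSA; cpds in DMSO + […] (300 uM stock), 30 min 37C; HTRF cAMP detection.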
D2 PAM – Beta-Arrestin HTS for Positive Allosteric Modulators of the Human D2 Dopamine Receptor: Potentiators; D(2) dopamine receptor (Homo sapiens), P14416; DiscoveRx D2 beta-arrestin cells, luminescence, 90 min; 100% = 57 uM dopamine signal; potentiation, % (test concentration not listed); 360,000 tested, 0.23% active; AID 624464, 2012; active = potentiation of 50% or more; inconclusive = 30% to 50%; inactive = 30% or less;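 further: compound concentration not given in the record; tested on top of an EC20 dose of dopamine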
Target sequence (P14416 whole entry, looked up): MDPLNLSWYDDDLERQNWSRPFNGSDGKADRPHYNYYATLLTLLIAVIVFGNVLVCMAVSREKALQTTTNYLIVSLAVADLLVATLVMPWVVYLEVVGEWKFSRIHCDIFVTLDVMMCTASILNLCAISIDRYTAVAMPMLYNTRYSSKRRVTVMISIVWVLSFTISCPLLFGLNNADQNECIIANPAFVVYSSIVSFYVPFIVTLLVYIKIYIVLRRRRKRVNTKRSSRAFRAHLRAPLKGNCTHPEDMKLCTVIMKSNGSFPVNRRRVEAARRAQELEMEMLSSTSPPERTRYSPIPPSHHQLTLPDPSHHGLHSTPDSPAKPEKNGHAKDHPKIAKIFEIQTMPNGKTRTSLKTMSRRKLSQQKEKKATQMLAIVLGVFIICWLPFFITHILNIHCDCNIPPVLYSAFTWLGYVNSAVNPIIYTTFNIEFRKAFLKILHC
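D2 cells co-treated with compound plus 50 nM dopamine (EC20) for 90 min at 37 deg C to detect potentiation. Beta-arrestin recruitment was read as enzyme-fragment luminescence after 1 h at ambient temperature. Full response was set by 57 uM dopamine.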
Menin-MLL FL inh – qHTS Assay for Inhibitors Targeting the Menin-MLL Interaction in MLL Related Leukemias: Competition With Fluorescein Labeled MLL-derived Peptide. Fluorescence polarization, fluorescein-MLL peptide displacement from menin. FP activity change, % at 61.4 µM. 290,000 tested, under 10 active; inconclusive = falling polarisation curve, or a change in total fluorescence; inactive = total fluorescence flat and polarisation flat or rising; no compound was filed as active; the % refers to the polarisation; negative = inhibition;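 further: % of control where 0% means no effect; inhibitors lower the polarisation; unlabelled MLL peptide was the positive control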
Sfp inh – qHTS Assay for Inhibitors of Bacillus subtilis Sfp phosphopantetheinyl transferase (PPTase) | AID 1490, 2009 | Potency, µM, inactives show max response, negative = inhibition, hits mostly inhibitors | Biochemical Sfp PPTase activity, qHTS | 310,000 tested, 3.5% active | 4'-phosphopantetheinyl transferase ffp (Bacillus subtilis), Q9F4F7; active means well fitted inhibition curve with a large enough effect; inconclusive means small, poorly fitted or top-dose-only effect, or another doubt; inactive means no such curve, though single readings can be large or run the other way;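 further: the enzyme is Sfp with the accession as filed and its product quenches rhodamine fluorescence; potency means the concentration at half of the fitted maximal effect; 0% = enzyme reaction without inhibitor and -100% = no enzyme wells; top concentration of the series not given in the record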
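Step 1, compound plus 15 nM Sfp-PPTase, 15 min, room temperature. Step 2, add rhodamine-CoA (5 uM) and BHQ-2-YbbR (12.5 uM). Step 3, read 525/598 nm fluorescence at 0 and 30 min.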
ClpP mod – qHTS Assay for Activators of ClpP. ATP-dependent Clp protease proteolytic subunit (Bacillus subtilis (strain 168)), P80244. AID 651965, 2013. 340,000 tested, 1.9% active. Potency, µM (top dose mostly 57.5 µM), for the others: at the top dose activity change, negative = active. purified B. subtilis ClpP, FRET peptide cleavage, 20 min; active = well fitted falling curve with a large enough effect; inconclusive = small, poorly fitted or top-dose-only effect; inactive = no such curve, though single readings can be large or run the other way; further: potency means the concentration at half of the fitted maximal effect; the source files actives as falling curves though it sought activators and does not explain the sign; nearly all actives have a fitted effect of over 65% in size; many hits overshoot -100%
Target sequence (P80244 whole entry, looked up): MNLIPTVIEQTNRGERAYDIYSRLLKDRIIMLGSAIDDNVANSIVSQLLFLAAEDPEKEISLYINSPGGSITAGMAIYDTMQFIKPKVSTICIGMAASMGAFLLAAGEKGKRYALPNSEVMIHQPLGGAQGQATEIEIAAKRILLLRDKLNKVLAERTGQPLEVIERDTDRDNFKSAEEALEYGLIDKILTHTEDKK
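Buffer: 100 mM Tris/HCl pH8, 100 mM KCl, 0.05% low protease BSA, 2.5% glycerol, 0.01% Tween-20. ClpP 10 microg/mL final; 20 min RT; delta FRET normalized to ADEP and DMSO controls.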
Numbers without * were called inactive; u = inconclusive; x = not tested or not shown; & = joins results of further samples; [ ] = dose if it differs, or a comment.

smiles | TRPV1 potentiator | gsp agonist | gsp antagonist | D2 PAM | Menin-MLL FL inh | Sfp inh | ClpP mod
C/C(=N\NC(=O)c1nnn(-c2nonc2N)c1-c1ccc(Cl)c(Cl)c1)c1ccncc1 | -11 | 50% | u | -2 | -2.3 | -6% | -0.9%
COc1ccc(C(=O)N(C)C(C)c2ccon2)cc1OC1CCN(C(C)C)CC1 (stereo unspecified) | u | -3%[15.4 µM] | 9% | -26 | x | 8% | 2.1%
COc1ccc(C2/C=C\CN(CC(C)C)CC(=O)N2Cc2ccc(F)cc2)cc1 (stereo unspecified) | -2 | x | -4% | -10 | 7.4&2.8 | -24%&3% | 0.6%
CC(C)(C)C(=O)NCCc1nc(-c2ccccc2)no1 | x | -18% | u | -12 | x | x | -2.5%
CCOc1ccc(NC(=O)CCN2CCCCC2)cc1 | 7 | 1% | 2% | -15 | 3.9 | 19% | 0.9%
COc1ccc(-n2c(C)cc(/C=C3/SC(=O)N(CC(=O)N4CCOCC4)C3=O)c2C)cc1 | 1 | -44% | 7% | -15 | 2.0 | 5% | -1.0%
Cc1cc(=O)oc2cc(OC(C)C(=O)N3CCOCC3)c(Cl)cc12 (stereo unspecified) | x | -28% | x | 3 | x | x | 4.1%
Cc1nnc(Sc2cc(C(=O)NC3CC3)c3ccccc3n2)s1 | 1 | -47%[inhibitor][15.4 µM] | -14% | -18 | 2.5 | 12% | x
COC(=O)c1ccc(-c2nc(CN3CCCN(C(=O)c4ccco4)CC3)c(C)o2)cc1 | -3 | u | -8% | -5 | x | -3% | 3.7%
CCOC(=O)N1CCN(S(=O)(=O)c2ccc(C(=O)Nc3nnc(C4CC4)o3)cc2)CC1 | 8 | -11%[15.4 µM] | -29% | -5 | 4.1 | 16% | -2.6%
CC12CN3CCN(CC(C3)C1(O)CN1CCCCC1)C2 (stereo unspecified) | 18 | -5% | -7% | 13 | -1.0 | 7% | 0.2%
Cc1n[nH]c(=S)n1/N=C/c1cccc(OCc2ccccc2)c1 | 9 | -19% | -5% | -5 | -1.2 | u | x
O=C(Nc1cccc2ccccc12)c1cnccn1 | -3 | 13% | 23% | -22 | 0.2 | 19% | -0.2%
COc1ccc(S(=O)(=O)NC(C)c2ccc3c(c2)OCCO3)cc1 (stereo unspecified) | x | u | x | -2 | x | x | 0.5%
CC(=O)N1CC(=O)N(c2ccccc2)C1=O | 28 | -19% | 9% | -5 | 1.3 | 31%[activator] | -4.3%
O=C(NCCC(=O)N1CCN(S(=O)(=O)c2ccccc2F)CC1)Nc1ccccc1 | 18 | -5% | 9% | 0 | x | x | 0.9%
CCc1ccc(S(=O)(=O)NCc2csc(-c3cccnc3)n2)s1 | u | -21% | -7% | -2 | 0.1 | 6% | -20%
O=C(/C=C/c1ccc(Cl)c([N+](=O)[O-])c1)Nc1cccc(NC(=O)c2ccco2)c1 | 1 | 20% | 35µM* | 3 | 2.2 | 23% | -2.6%
Cc1cc(C)n(-c2nc(NCCN(C)C)c3c4c(sc3n2)CCCC4)n1 | 19 | -17% | 13% | -17 | 1.7 | -4% | x
CC(C)[C@H](Nc1nc(-c2ccccc2)nc2c1oc1ccccc12)C(=O)O | -7 | 13% | -17% | -5 | 0.1 | 22% | -3.2%
CCOC(=O)CNC(=O)C(CC(C)C)NC(=O)C1CCCCC1 (stereo unspecified) | -4 | 20% | 4% | -3 | -0.1 | 3% | -0.6%
O=C(CN1C(=O)C(=O)N(C2CCCC2)C1=O)NCCc1ccc(Cl)cc1Cl | 1 | 13% | -1% | -2 | x | x | -4.4%
CN(C)c1nc2c(cnn2C)c(=O)[nH]1 | x | 7%[15.4 µM] | 11% | -25 | x | x | -1.1%
COc1ccc(S(=O)(=O)N2CCN(C(=O)C3CC3)CC2)cc1 | 1 | -1%[15.4 µM] | x | -16 | 3.3 | 22% | x
CCCn1nc(NC(=O)c2cccs2)c2cc3cccc(C)c3nc21 | -5 | 0%[15.4 µM] | 11% | -7 | 4.8 | 3% | x

Overlap with the part before: five compounds, followed by the next part.
smiles | TRPV1 potentiator | gsp agonist | gsp antagonist | D2 PAM | Menin-MLL FL inh | Sfp inh | ClpP mod
CCOC(=O)CNC(=O)C(CC(C)C)NC(=O)C1CCCCC1 (stereo unspecified) | -4 | 20% | 4% | -3 | -0.1 | 3% | -0.6%
O=C(CN1C(=O)C(=O)N(C2CCCC2)C1=O)NCCc1ccc(Cl)cc1Cl | 1 | 13% | -1% | -2 | x | x | -4.4%
CN(C)c1nc2c(cnn2C)c(=O)[nH]1 | x | 7%[15.4 µM] | 11% | -25 | x | x | -1.1%
COc1ccc(S(=O)(=O)N2CCN(C(=O)C3CC3)CC2)cc1 | 1 | -1%[15.4 µM] | x | -16 | 3.3 | 22% | x
CCCn1nc(NC(=O)c2cccs2)c2cc3cccc(C)c3nc21 | -5 | 0%[15.4 µM] | 11% | -7 | 4.8 | 3% | x
COc1ccc(-c2cc(=O)c3cc(OC)ccc3[nH]2)cc1 | 22 | x | -2% | -10 | 3.4 | 13% | 4.1%
COC(=O)c1c(NC(=O)CCN2CCOCC2)sc2c1CCCC2 | -24 | 15% | 1% | -5 | 9.5 | -15% | -7.8%
O=C(c1sccc1Cl)N1CCN(Cc2ccc3c(c2)OCO3)CC1 | x | -3%[15.4 µM] | 4% | -15 | 3.0 | 1% | 1.5%
O=C(Cc1cccc2ccccc12)OCn1nnc2ccccc2c1=O | 26 | -11% | -7% | -10 | 0.4 | 14% | -3.4%
CCOc1ccc(-n2c(=O)c3c4c(sc3n(CC(=O)NCc3ccco3)c2=O)CCC4)cc1 | -5 | 0% | 4% | -12 | 0.9 | -18% | -2.6%
Cc1cc2nc(-c3ccc(SCC(=O)N4CCc5ccccc54)nc3)[nH]c2cc1C | 23 | -36%[inhibitor] | -1% | -7 | 11 | -10% | 107%
CN(CC(=O)Nc1cccc(F)c1)C(=O)Cn1cnc2c1c(=O)n(C)c(=O)n2C | -6 | 17%[15.4 µM] | 8% | -6 | x | x | x
COc1cc(F)ccc1CN1CCC(C(=O)Nc2ccc(Oc3ccccc3)nc2)CC1 | 3 | 13% | 10% | -17 | x | 12% | x
CCOC(=O)c1sc(NC(=O)Nc2ccc(Cl)cc2)cc1C | -7 | -5%[15.4 µM] | u | 2 | 2.2 | -10% | 1.0%
COc1cccc(CN2CC(C(=O)NCCCc3ccc(C)cc3)CCC2=O)c1 (stereo unspecified) | -14 | 5% | -4% | -3 | -3.0 | 12% | 0.3%
CC1CC(C)CN(CCCNC(=O)CN2C(=O)CSc3ccc(S(=O)(=O)N4CCCCC4)cc32)C1 (stereo unspecified) | -3 | -17% | 9% | -38 | 1.6 | -6% | 0.7%
CC(C)(C)C(=O)Nc1ccccc1N1CCN(C(=O)c2ccc(Cl)cc2)CC1 | 9 | -20% | -23% | 8 | 5.0 | 5% | 5.1%
CN(C)S(=O)(=O)n1cc(/C=C(\NC(=O)c2ccccc2)C(=O)N2CCCCC2)c2ccccc21 | x | -6% | x | -5 | x | x | -0.3%
Cc1ccc(-c2nnc(Nc3ccc4c(c3)OCO4)c3ccccc23)cc1S(=O)(=O)NCCO | 4 | -44%[inhibitor] | -2% | -2 | 1.9 | 14% | 0.5%
O=C(c1ccccn1)N1CCN(S(=O)(=O)c2cccc(Br)c2)CC1 | 25 | -8% | 6% | 11 | x | x | -1.9%
Cc1ccc(CNC(=O)Nc2ccccc2)cc1 | 18 | 7% | 13% | -11 | 1.6 | 6% | -1.4%
Cc1ccc(CSc2nnc(SCC(=O)N/N=C/C=C/c3ccccc3[N+](=O)[O-])s2)cc1 | 5 | 36% | -2% | -8 | 0.8 | 4% | -1.0%
CCOc1ccc2c(C)c(C(=O)O)oc2c1OCC | 5 | 23% | -10% | 14 | 0.7 | 3% | -7.8%
CON=C1C=C(C)C(=O)C(C)=C1C | x | -41%[inhibitor] | 2% | 12 | x | x | -1.6%
CC(C)Sc1nc2c(c(=O)[nH]1)C(c1cccs1)C1=C(CC(C)(C)CC1=O)N2 (stereo unspecified) | -10 | -10% | -18% | -6 | -1.1 | -19% | -13%
COc1ccc(OCCCC(=O)N(C)CC(=O)Nc2c(C)cccc2C)cc1 | 15 | -12% | 2% | -28 | x | x | 2.0%
COC(=O)c1cc2ccsc2n1Cc1cc(=O)n2ccccc2n1 | 6 | -27% | 7% | -5 | 4.2 | 1% | -6.8%
COC(=O)c1cc(NC(=O)CSc2nnc(CN3CCOCC3)n2C)ccc1Cl | 6 | -25% | 3% | -23 | 2.3 | 8% | -2.3%
O=C(Nc1ccccc1F)c1ccc(-c2cccc([N+](=O)[O-])c2)o1 | -16 | -8% | -6% | -10 | x | 8% | -0.3%
COc1ccc(S(=O)(=O)NC(CC(=O)NCCc2ccc(OC)c(OC)c2)c2ccco2)cc1 (stereo unspecified) | -11 | -30% | -2% | 6 | -0.7 | 4% | -3.5%
CCOC(=O)c1ccc(NC(=O)CSc2nc(SC)ns2)cc1 | 3 | -13% | -21% | -14 | -1.6 | -18% | 1.2%
CCn1c(-c2ccccc2O)n[nH]c1=S | -4 | 36% | 10% | -14 | -0.3 | u | -4.8%

2 of these compounds in a different format:
Cc1ccc(CSc2nnc(SCC(=O)N/N=C/C=C/c3ccccc3[N+](=O)[O-])s2)cc1
  TRPV1 potentiator = 5
  gsp agonist = 36%
  gsp antagonist = -2%
  D2 PAM = -8
  Menin-MLL FL inh = 0.8
  Sfp inh = 4%
  ClpP mod = -1.0%

CCOc1ccc2c(C)c(C(=O)O)oc2c1OCC
  TRPV1 potentiator = 5
  gsp agonist = 23%
  gsp antagonist = -10%
  D2 PAM = 14
  Menin-MLL FL inh = 0.7
  Sfp inh = 3%
  ClpP mod = -7.8%

Rows were taken by chance; overall some 5.1% were active at least once.
